Screening results: PubChem BioAssay, National Center for Advancing Translational Sciences (NCATS)
GLA inh pH 4.5: blocks human alpha-galactosidase A at pH 4.5. P06280. purified enzyme, 4-MU-alpha-Gal fluorescence, pH 4.5. activity change, negative = inhibition, % at 105 µM. 230,000 tested, under 10 active; inconclusive = small, poorly fitted or top-dose-only inhibition, or a rising curve; inactive = flat fitted curve, though single readings scatter; no compound was filed as active;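 further: 0% = full activity with enzyme and -100% = basal without enzyme; dose as in the result columns while the protocol names 77 µM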
Target sequence (P06280 whole entry, looked up): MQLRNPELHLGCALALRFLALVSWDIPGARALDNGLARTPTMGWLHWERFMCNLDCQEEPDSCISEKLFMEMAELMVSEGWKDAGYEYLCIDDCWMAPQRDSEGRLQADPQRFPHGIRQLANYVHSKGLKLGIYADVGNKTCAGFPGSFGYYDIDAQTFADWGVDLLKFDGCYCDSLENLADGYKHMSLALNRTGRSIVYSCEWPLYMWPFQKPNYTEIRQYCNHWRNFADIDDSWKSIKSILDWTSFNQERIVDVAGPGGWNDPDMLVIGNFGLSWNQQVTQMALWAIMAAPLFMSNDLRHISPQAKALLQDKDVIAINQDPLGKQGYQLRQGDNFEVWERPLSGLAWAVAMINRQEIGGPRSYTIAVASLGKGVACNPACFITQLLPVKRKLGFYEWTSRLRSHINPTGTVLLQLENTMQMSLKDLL
Rango dissoc inh: inhibitors of RanGTP-induced Rango-importin beta complex dissociation. Biochemical FRET Rango-importin beta, RanGTP-induced dissociation. Potency, µM (doses to about 46.1 µM), for inactives: top-dose activity change, negative = inhibition. hit rate 0.071% among 340,000; active means falling FRET ratio curve, often poorly fitted, with flat reads before Ran was added; inconclusive means other falling curves, or compound fluorescence or quenching; inactive means flat or rising ratio curve;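 further: potency means the concentration at half of the fitted maximal effect; % of control where 0% means no effect; nearly all actives have a fitted effect of over 45% in size; -100% = wells without RanGTP and RCC1; the record marks most hits as doubtful in a second field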
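Recombinant Rango FRET biosensor (EYFP–snurportin 1 IBB–cerulean CFP10) at 0.1 uM premixed with 0.25 uM importin beta in PBS, 1 mM DTT, 0.02% Tween-20, 0.1% BSA. Compound added 5 min; RanGTP-RCC1 (0.6 uM Ran, 2 mM GTP, 0.2 uM RCC1) then triggers release, read at 45 min.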
miR-21 FLuc: miR-21 reporter, rising signal. 340,000 tested, under 10 active. Potency, µM (highest dose often 38.3 µM), for the others: at the highest dose reporter change, positive = more light. HeLa miR-21 FLuc reporter, luciferase, 48 h. AID 2288; active = well fitted rising curve with a large enough effect; inconclusive = small, poorly fitted or top-dose-only effect; inactive = no such curve, though single readings can be large or run the other way;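 further: % of control where 0% means no effect; miR-21 action dims this reporter so a rising signal means less miR-21 action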
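HeLa cells endogenously expressing miR-21, stably carrying CMV-driven firefly luciferase with a downstream miR-21 binding site, 2000 cells/well. Titrations up to approximately 40 uM, 48 hours; luciferase luminescence read.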
Rango-impB inh: Rango-importin beta binding inhibition; Potency, µM (top dose mostly 92.2 µM), inactives show at the top dose inhibition of complex formation; AID 540263; Q14974; Rango CFP/YFP FRET sensor + importin beta, 45 min; hit rate 0.031% among 340,000; active = rising FRET ratio curve, often small or poorly fitted; inconclusive = mostly compound fluorescence or quenching in the first reads; inactive = flat curves in all reads;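 further: potency means the concentration at half of the fitted maximal effect; 0% = DMSO wells and 100% = buffer wells lacking importin beta; nearly all actives have a fitted effect of over 15% in size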
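Inhibition scored from the CFP 486 nm/YFP 530 nm FRET ratio 45 min after adding 0.125 microM importin beta to 50 nM Rango biosensor preincubated 5 min with compound (room temperature, PBS with DTT, Tween-20, BSA). No-importin wells as positive control.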
An asterisk follows results filed as active; ? = inconclusive; . = not tested or not shown. An excerpt, so the mix of outcomes need not match the whole.

SMILES	GLA inh pH 4.5	Rango dissoc inh	miR-21 FLuc	Rango-impB inh
O=C(CSc1ccc(F)cc1)N1CCOCC1	.	0%	-10%	-1.0%
CCn1cc(C(=O)N2CCc3ccccc32)c(=O)c2cc(S(=O)(=O)N(C)C3CCCCC3)ccc21	-4	-4%	10%	-3.7%
Cc1ccccc1C(=O)Nc1cccc(NC(=O)c2ncn[nH]2)c1	-1	3%	4%	-1.7%
Cc1c(NC(=O)C(C)OC(=O)CNC(=O)c2ccc(C(C)(C)C)cc2)c(=O)n(-c2ccccc2)n1C (configuration not stated)	-2	1%	-4%	0.3%
Cc1ccccc1NS(=O)(=O)c1ccc(C(=O)NCCCN2CCOCC2)cc1	.	11%	.	0.4%
CC(C)CC1CC(=O)OC1(C)C(=O)CSc1nc2ccccc2s1 (configuration not stated)	10	-23%	-16%	0.0%
CC1CC(C)CN(CCCNC(=O)C2CCC(=O)N2C2CCCC2)C1 (configuration not stated)	4	-6%	-1%	-0.8%
O=C(c1c(F)cccc1F)N1CCN(CCOc2ccccc2)CC1	.	1%	1%	0.2%
O=S(=O)(c1ccc(=S)[nH]c1)N1CCOCC1	.	-4%	.	-0.4%
CC(=O)c1ccc(NS(=O)(=O)Cc2ccc(Cl)cc2)cc1	1	2%	-6%	-0.2%
CCOC(=O)c1sc(N(Cc2ccccc2)C(=O)CSc2ncn[nH]2)nc1C	-9	3%	-30%	-1.0%
O=C1C2CCCN2C(c2ccc(F)cc2)N1c1nccs1 (configuration not stated)	9	-10%	-3%	4.2%
COc1ccc(C)cc1NC(=O)C(=O)NNC(=O)COc1ccc(Cl)cc1	3	-6%	-2%	3.8%
O=C1Nc2ccccc2C1(O)Cc1ccncc1 (configuration not stated)	-3	2%	-4%	-1.8%
Cc1cc(NC(=O)c2cc(-c3ccc(C)s3)nc3ccccc23)no1	2	9%	-1%	?
CS(=O)(=O)c1ccc2nc(NC(=O)c3ccccc3)sc2c1	.	-8%	-1%	1.5%
O=C(C1CCCCC1)N1CCN=C1SCc1cccc([N+](=O)[O-])c1	-9	-7%	0%	2.5%
O=C(c1cc(-c2ccc(Br)cc2)n[nH]1)N1CCN(C(=O)c2ccccc2Br)CC1	.	-14%	-3%	2.0%
COc1cc(C2CC(=O)c3c([nH]c(C(=O)OCCOC(C)C)c3C)C2)cc(OC)c1OC (configuration not stated)	-2	14%	29%	0.4%
Cc1sc(NC(=O)CN(C(=O)c2ccccc2F)C2CCCC2)c(C(N)=O)c1C	.	11%	25%	0.0%
CCN1CCN(c2nc3c(c(=O)[nH]c(=O)n3C)n2CCCc2ccccc2)CC1	-13	0%	1%	?
Cn1ccnc1C(=O)c1ccccc1Cl	.	-14%	2%	-2.2%
O=C(Nc1ccc(Cl)cc1)Nc1nnc(SCc2ccc(Cl)cc2)s1	2	2%	-1%	-2.9%
Cc1ccc(OCC(=O)Nn2c(C)nc3ccccc3c2=O)c(C(C)C)c1	1	-16%	14%	-5.2%
COc1cc(OC)c(C(=O)OC(C)C(=O)Nc2cc(C(F)(F)F)ccc2Cl)cc1OC (configuration not stated)	0	8%	2%	-2.5%
CCOC(=O)c1sc(=S)n(-c2ccccc2)c1N(C(C)=O)C(C)=O	5	43%	-1%	1.9%
COCCn1c(SCc2csc(-c3ccccc3)n2)nc2ccccc21	?	-1%	-3%	7.7%
Cc1ccc(NS(=O)(=O)c2cccc3cccnc23)c(Br)c1	.	?	-6%	4.7%
COc1ccc(C)cc1S(=O)(=O)N1CCC(C(=O)NC2CCCC2)CC1	.	-4%	-1%	1.4%
O=C(NN=Cc1ccc(F)cc1)C1CC1	.	-7%	.	-1.5%
Cc1cccnc1NC(=O)/C=C/c1ccc2c(c1)OCO2	11	4%	-35%	-1.1%
O=C(Nc1nc(-c2ccccn2)cs1)c1ccc(Cl)s1	-18	-2%	15%	-3.3%
Cc1ccccc1NC(=O)c1ccc(F)c(S(=O)(=O)NCC2CCCO2)c1 (configuration not stated)	.	17%	2%	-0.1%
Cc1nn(-c2ccccc2)c(Cl)c1C(=O)OCC(=O)NCCc1ccccc1	.	-12%	11%	1.7%
CSc1ccccc1NC(=O)CN(C)C(=O)Cc1c[nH]c2ccccc12	.	?	.	0.1%
C/C(=N/OC(=O)c1ccccc1Br)c1ccc(C)cc1	.	1%	-51%	?
Cc1nn(CCCC(=O)NCc2ccccc2)c(C)c1[N+](=O)[O-]	1	6%	-12%	-2.8%
Cn1c(=O)c2c(nc(NCCCN3CCOCC3)n2Cc2ccc(Cl)cc2)n(C)c1=O	-4	?	-19%	0.0%
COCCCNC(=O)C[C@H]1C[C@H](C(=O)N2CCCCC2)[C@@]2(CCc3ccccc3)c3[nH]c4cc(CCC(=O)N(C)C)ccc4c3CCN2C1=O	.	?	.	2.0%
Cc1cc(NC(=O)CCN2CCC(C)CC2)ccc1Br	.	11%	-12%	2.8%
CCNC(=S)NN(c1ccccc1)c1ccccc1	-5	0%	-2%	-3.9%
O=C(Nc1ccncc1)C1CC(=O)N(Cc2ccccc2)C1 (configuration not stated)	.	19%	.	-2.4%
CC(/C=N/NC(=O)c1nn(C)c(C)c1Br)=C\c1ccccc1	-2	2%	-43%	-1.9%
CN1CCN(C(=O)Nc2cccc3ccccc23)CC1	-3	7%	-3%	4.2%
Cc1cc2c(c(=O)o1)C(CCC1CCCCC1)C(C#N)=C(N)O2 (configuration not stated)	-1	?	-8%	?
CN(Cc1ccccc1)C(=O)c1[nH]cnc1C(=O)Nc1ccon1	.	-9%	.	-0.4%
CC(=O)Nc1sc2c(c1C(c1ccccn1)N1CCCC1)CCCC2 (configuration not stated)	5	-1%	-3%	-1.2%
Cc1ccc(NC(=S)NNC(=O)CSc2nc3ccccc3c(=O)n2-c2ccc(C)cc2)cc1	-2	-11%	-12%	3.0%
CCOc1ccc(NCc2nnc(SCC(=O)Nc3cc(C)on3)n2-c2ccc(OC)cc2)cc1	1	1%	-4%	0.0%
Cc1ccc2nc(-c3ccccc3)cn2c1	-4	-7%	?	-1.8%
CN1CCC(=NNC(=O)C(=O)Nc2ccc(F)cc2)CC1	3	-17%	-24%	?
Cc1noc(C)c1NC(=O)Nc1ccc2c(c1)C(=O)N([C@H](C)CO)C[C@H](C)[C@@H](CN(C)S(=O)(=O)c1cn(C)cn1)O2	.	-6%	.	-1.5%
COc1ccccc1CNC(=O)COC(=O)c1c[nH]c2ccccc12	.	8%	.	-2.0%
CCC(CC)C(=O)Nc1cc(C(=O)NCCc2ccccc2)ccc1Cl	0	-17%	-38%	3.7%
COc1ccc(NC(=O)CCCC(=O)NCCc2ccc(OC)c(OC)c2)cc1	.	2%	0%	-5.8%
CCN(CC(=O)NC1CCS(=O)(=O)C1)S(=O)(=O)c1ccc(C)cc1C (configuration not stated)	3	-13%	-4%	3.2%
Cc1c(NC(=S)NC(=O)c2ccco2)c(=O)n(-c2ccccc2)n1C	-2	5%	-1%	-4.7%
O=C(CNC(=O)c1cccc(Cl)c1)N/N=C/c1cccnc1	0	31%	3%	-0.1%
Cc1ccccc1N(CC(=O)N/N=C/c1ccc(F)cc1)C(=O)c1ccccc1	-2	3%	1%	-0.7%
O=c1oc2c(CN3CCCCC3)c(O)ccc2cc1-c1nc2ccccc2[nH]1	-7	?	-31%	?

The listing continues.
Each structure is followed by: GLA inh pH 4.5 | Rango dissoc inh | miR-21 FLuc | Rango-impB inh
COC(=O)c1ccc(NC(=O)c2ccc(C)cc2)o1
    0 | -4% | -16% | -4.0%
COc1ccc(Cn2c(-c3ccc(Cl)cc3)c[n+]3ccccc23)cc1
    10 | -7% | 1% | 0.6%
CN(C(=O)Cc1c(C(=O)O)n(C)c2ccccc12)c1cccc(C(F)(F)F)c1
    . | -8% | -3% | 0.8%
CCOc1ccc(CNC(=O)CCS(=O)(=O)Cc2ccccc2C)cc1OC
    0 | 0% | -1% | 3.9%
CC12CCC(C(=O)NNC(=O)c3ccccc3)(OC1=O)C2(C)C (configuration not stated)
    . | -20% | -5% | 0.1%
O=C(CSc1nnc2c3c4c(sc3ncn12)CCCC4)NCc1ccco1
    -3 | -12% | -7% | 2.2%
Cc1ccc(NC(=O)c2cccnc2)cc1C
    . | 12% | -51% | 1.8%
Cc1c(Cc2ccc3c(c2)OCO3)sc(NC(=O)C(C)(C)C)c1C#N
    6 | ? | 6% | 2.8%
CCCCN(CC)C(=O)c1n[nH]c(=O)c2ccccc12
    1 | -4% | -2% | 4.0%
O=C(CSc1nc2ccccc2c(=O)n1-c1ccccc1)N1CCc2ccccc21
    -5 | 0% | -6% | -1.8%
O=S(=O)(c1cccc(NC(=S)Nc2ccc(Br)cc2Cl)c1)N1CCOCC1
    -8 | 0% | -6% | -1.4%
COc1cc(OC)cc(N(C(=O)C2COc3ccccc3O2)C(C(=O)NC2CCCCC2)c2ccc(O)cc2)c1 (configuration not stated)
    -4 | 11% | 17% | 1.7%
COc1ccc(-n2nc(C(=O)NCC(=O)N3CCN(c4ccc(F)cc4)CC3)c3ccccc3c2=O)c(OC)c1
    . | 0% | -38% | 0.9%
CN(c1ccc(Cl)cc1)S(=O)(=O)c1nnc(NC(=O)C(C)(C)C)s1
    . | 12% | 1% | -3.1%
COc1cc(OC)c(OC)cc1/C=C1\Oc2cc(OCC(=O)N3Cc4ccccc4C[C@H]3C(=O)O)ccc2C1=O
    . | ? | 7% | ?
COc1ccc(S(=O)(=O)NCC(c2ccc(C)cc2)N2CCN(C)CC2)cc1 (configuration not stated)
    . | 0% | . | 0.0%
O=[N+]([O-])c1cc([N+](=O)[O-])c2nonc2c1Nc1ccc(O)cc1
    . | ? | -4% | ?
O=C(CSc1nnc2ccc(-c3cccnc3)nn12)Nc1ccc(F)cc1F
    0 | -1% | 4% | -0.5%
CCCNC(=O)CS(=O)(=O)Cc1nc(-c2cccc(OC)c2)oc1C
    7 | 0% | -6% | ?
CC(C)(C)c1ccc(/C=C/C(=O)N2CCN(c3ncccn3)CC2)cc1
    -8 | 11% | -3% | 3.8%
Cn1c(-c2ccccc2)c[n+]2c1-c1ccccc1C2
    -7 | 0% | -1% | -0.2%
CCC(=O)N/N=C(\C)CC(=O)Nc1ccccc1-c1ccccc1
    2 | 9% | -18% | 0.3%
CN(C(=O)c1cccc(NC(=O)Cc2cccc([N+](=O)[O-])c2)c1)C1CCCCC1
    . | 22% | . | -1.8%
CCOc1ccccc1NC(=O)CSC1=NN2CCCC(=O)N=C2S1
    . | 0% | -1% | -0.3%
COc1ccc(/C=N\NC(=O)c2ccccc2)cc1COc1ccccc1
    . | -7% | 2% | 2.6%

Compound profiles, from the list above.
`Cn1c(-c2ccccc2)c[n+]2c1-c1ccccc1C2` as listed: GLA inh pH 4.5 = -7; Rango dissoc inh = 0%; miR-21 FLuc = -1%; Rango-impB inh = -0.2%
`CCOc1ccccc1NC(=O)CSC1=NN2CCCC(=O)N=C2S1` as listed: GLA inh pH 4.5 = .; Rango dissoc inh = 0%; miR-21 FLuc = -1%; Rango-impB inh = -0.3%
`CN(C(=O)c1cccc(NC(=O)Cc2cccc([N+](=O)[O-])c2)c1)C1CCCCC1` as listed: GLA inh pH 4.5 = .; Rango dissoc inh = 22%; miR-21 FLuc = .; Rango-impB inh = -1.8%
